B2AR ag – beta2AR agonists driving receptor internalization, primary screen, cell-based, FAP fluorogen, flow cytometry. Beta-2 adrenergic receptor (Homo sapiens), P07550. Am2.2-beta2AR cells; reference of the scale not given here. response, % (concentration not given with the values). 340,000 tested, 0.43% active. AID 504454, 2011;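 active = response above a set limit, near 3 SD of response in nonfluorescent compounds, cut at about 42% in these data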;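 also: stock transfer was 100 nL into about 11 µL; a reference agonist was the positive control; negative values mostly stem from fluorescent compounds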
Target sequence (P07550 whole entry, looked up): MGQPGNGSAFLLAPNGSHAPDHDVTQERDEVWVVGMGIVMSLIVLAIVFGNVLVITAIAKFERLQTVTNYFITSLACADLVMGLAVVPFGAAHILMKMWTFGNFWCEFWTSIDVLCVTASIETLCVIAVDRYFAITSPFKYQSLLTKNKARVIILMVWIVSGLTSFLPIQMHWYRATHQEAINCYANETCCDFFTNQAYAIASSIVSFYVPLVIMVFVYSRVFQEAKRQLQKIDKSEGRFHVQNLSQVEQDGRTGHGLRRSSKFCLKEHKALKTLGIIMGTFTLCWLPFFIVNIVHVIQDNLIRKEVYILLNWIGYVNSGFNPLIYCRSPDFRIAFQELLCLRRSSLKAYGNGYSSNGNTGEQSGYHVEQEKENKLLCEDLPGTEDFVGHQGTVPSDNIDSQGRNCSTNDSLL
Bfl-1 A1 inh – caspase 3/7 activation in MEF A1-2A-BIM cells, primary screen, A1 inhibitor project, cell-based, luminescence, HTS. Caspase-Glo 3/7 luminescence, 3 h; percent of clofoctol response, vehicle zero. caspase activation, % (concentration not given with the values). 330,000 tested, 0.066% active. AID 2462, 2010;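 active = over half of replicate activation scores above 10%, or exactly half above 10 with the replicate mean above 10; inconclusive = replicate mean below 10 yet half the replicates above 10; inactive = over half of replicates below 10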;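 also: wells of about 30 µL received 50 nL stock; many hits fall short of the cut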
HNF4A DNA FP – change in binding of human HNF4A to DNA, primary screen, biochemical, fluorescence polarization, FITC-DNA; 1 h; activity change, % at 10 µM; 360,000 tested, 0.3% active; AID 1224865, 2016; in the data active = activity change above about 30%, passing the limit was not always enough;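 also: controls were the assay level and a saturating level of protein; the project sought stronger binding though the title names inhibitors; some compounds called inactive have numbers as strong as hits; positive values seem to mean higher polarization but the record does not say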
Target sequence (P41235 whole entry, looked up): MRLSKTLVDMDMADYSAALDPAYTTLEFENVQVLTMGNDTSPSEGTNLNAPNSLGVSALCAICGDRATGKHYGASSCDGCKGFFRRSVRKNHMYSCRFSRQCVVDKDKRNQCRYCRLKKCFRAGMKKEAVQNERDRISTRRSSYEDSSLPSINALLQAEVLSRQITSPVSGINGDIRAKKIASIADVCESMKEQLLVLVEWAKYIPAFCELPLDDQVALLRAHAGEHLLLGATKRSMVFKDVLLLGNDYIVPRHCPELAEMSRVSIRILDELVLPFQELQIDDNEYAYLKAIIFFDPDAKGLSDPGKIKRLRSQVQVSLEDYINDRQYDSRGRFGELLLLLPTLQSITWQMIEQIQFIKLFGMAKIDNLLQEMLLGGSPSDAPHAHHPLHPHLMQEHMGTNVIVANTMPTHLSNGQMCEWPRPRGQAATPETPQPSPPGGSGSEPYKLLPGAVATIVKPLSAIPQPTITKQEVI
LANA-H2B inh – blockers of LANA interaction with H2A/H2B – biochemical, FP readout, HTS, primary screen. cell-free LANA-H2A/H2B peptide, fluorescence polarization. 320,000 tested, 0.6% active. Protein LANA1 (Human herpesvirus 8 type P (isolate GK18)), Q9QR71. inhibition, % (no concentration beside the values). AID 2629, 2010; in the data active = inhibition mostly above about 10%, no sharp cut-off; inactive = mostly below about 6.7%;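 also: stock transfer was 7.5 nL into about 10 µL; 0% = median of vehicle wells and 100% = median of positive control wells; one replicate is shown; the record names a cut of 25% in any replicate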
Ecoli growth – E. coli growth inhibition, primary screen, OD600; Escherichia coli growth, 23 h; active compounds read low; OD600 absorbance (no concentration beside the values); 330,000 tested, 0.21% active;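 active = OD600 absorbance below the run mean of sample wells minus 3.6 SD, in any replicate, cut at about 0.56 in these data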;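 also: stock transfer was 300 nL into about 60 µL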
Vif TR-FRET – inhibitors of Vif binding to APOBEC3G peptide, primary screen, biochemical, TR-FRET, GST-Vif 1-94, biotin-A3G peptide, dose response retest (AID 1117319). Virion infectivity factor (Human immunodeficiency virus type 1 group M subtype B (isolate …. 260,000 tested, 0.57% active. TR-FRET GST-Vif / biotin-A3G peptide binding; higher % means a stronger effect; test concentration not given here; strong numbers were not always called active. one-dose inhibition, %; IC50 in µM for titrated hits;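 active = above the screen mean plus three standard deviations and confirmed in dose response; inconclusive = results disagree or hit not tested in dose response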;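 also: Vif residues 1-94 fused to GST binding biotinylated APOBEC3G peptide 110-148; 0% = full assay without inhibitor and 100% = GST in place of GST-Vif; retest series ran down from 100 µM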
UCH37 inh – inhibitors of human UCH37 deubiquitinase, primary screen, biochemical, Ub-AMC cleavage, fluorescence; Ubiquitin carboxyl-terminal hydrolase isozyme L5 (Homo sapiens), Q9Y5K5; purified proteasome/UCH37; inhibition, % (test concentration not listed); 330,000 tested, 0.33% active; AID 588478, 2011;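 active = mean of two replicates above 20%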;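 also: 0% = compound-free wells with enzyme and 100% = wells lacking proteasome; stock transfer was 100 nL into about 20 µL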
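Material: human UCH37 enzyme supplied as purified proteasome complex. Measure: % inhibition of Ub-AMC cleavage fluorescence. Medium: pH 7.4 Tris-HCl (50 mM) with ovalbumin, ATP-MgCl2, DTT. Times: 30 min preincubation with enzyme, 25 min cleavage at room temperature. Detection: AMC fluorescence intensity at 355/460 nm.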
Numbers without * were called inactive; ? = inconclusive; · = no result given; & = joins results of further samples.

SMILES | B2AR ag | Bfl-1 A1 inh | HNF4A DNA FP | LANA-H2B inh | Ecoli growth | Vif TR-FRET | UCH37 inh
O=C(CSc1nncs1)Nc1ccc2c(c1)OCCO2 | -12.6 | 0.2 | -9.8 | 4.1 | 0.67 | 25.1% | 3.5
CC(C)C[C@@H](C)C(=O)N(Cc1ccccc1)c1ccccc1 | -1.3 | -0.5 | 0.8 | 6.2 | · | · | 5.4
Cn1nc(C(=O)N2CCCc3ccccc32)c2ccccc2c1=O | -0.6 | 0.9 | -0.8 | -2.1 | 0.7 | · | 2.9
Cc1ccc(N(C)S(=O)(=O)c2cccc(C(=O)OCC(=O)c3c(N)n(C)c(=O)n(C)c3=O)c2)cc1 | 17.9 | -0.1 | -3.2 | -3.6 | 0.718 | 14.4% | 1.9
Cn1nc(C(=O)Nc2ccc(S(=O)(=O)N3CCCC3)cc2)ccc1=O | 0.8 | 0.7 | 1.9 | 6.6 | 0.707 | -5.7% | 3.4
CC(NC(=O)C1CCN(S(=O)(=O)c2cccs2)CC1)c1cccc(Cl)c1 (stereo not given) | 2.7 | -0.9 | -0.8 | 4.1 | 0.666 | · | 2.7
CCCNS(=O)(=O)c1ccc(CCC(=O)N2CCCCC2)cc1 | -1.9 | 1.3 | 0.5 | 0.5 | 0.656 | 2.6% | 2.0
COc1cc2[nH]c(=O)n(Cc3ccc(C(=O)NC4CCN(Cc5ccccc5)CC4)cc3)c(=O)c2cc1OC | 20.6 | 0.3 | 2.7 | 0.3 | 0.675 | 1.9% | -3.5
c1ccc2c(c1)OCC(c1csc3ncnc(N4CCOCC4)c13)O2 (stereo not given) | -9.7 | -0.2 | 0.2 | -1.3 | 0.667 | -3.7% | 4.2
CN(C)C(CNC(=O)CN1C(=O)NC2(CCc3ccccc32)C1=O)c1ccco1 (stereo not given) | 6.5 | -0.8 | 4.0 | -3.4 | 0.719 | ? | -0.7
CCCOc1ccc(/C(O)=C2/C(=O)C(=O)N(c3ccccn3)C2c2ccc(OC)cc2)cc1C (stereo not given) | -9.1 | -1.6 | 6.3 | -1.7 | 0.649 | -14.5% | 9.7
Cc1cc(=O)[nH]n(CCO)c1=O | 0.2 | -0.3 | 4.1 | 0.4 | 0.666 | ? | 5.9
O=C(OCc1cc2ccccc2[nH]c1=O)c1ccc([N+](=O)[O-])cc1 | -7.0 | -0.3 | -2.1 | 3.8 | 0.697 | 21.6% | 0.8
O=C(CCn1cnnn1)N1CCCC(Nc2ccc(F)cc2)C1 (stereo not given) | -3.3 | -0.1 | 3.2 | 0.1 | 0.719 | · | 3.7
O=C(NCCNC(=O)C(c1ccccc1)c1ccccc1)c1ccco1 | -0.4 | -0.2 | -2.5 | -1.5 | 0.714 | 0.5% | -1.8
O=C(NCc1ccccc1)C(c1ccncc1)N(C(=O)c1ccccn1)c1ccccc1 (stereo not given) | -0.3 | 0.4 | -1.6 | 2.6 | 0.632 | · | 3.3
CCC(C)(c1nnnn1-c1c(C)cccc1C)N(N=O)c1cccc(C(F)(F)F)c1 (stereo not given) | 4.3 | -0.1 | 1.1 | -3.2 | 0.74 | 17.4% | 5.3
CCN(CC(=O)NCc1ccc(Cl)cc1)C(=O)c1cc(S(=O)(=O)N2CCOCC2)ccc1C | 5.6 | -0.6 | 4.4 | -5.0 | 0.674 | · | -1.2
O=C(Nc1c[nH]c(=O)[nH]c1=O)c1cccc(F)c1 | -5.6 | -0.1 | 3.5 | 4.4 | 0.635 | 3.9% | 1.6
COc1ccccc1OCC#CCNC1CCCCC1C (stereo not given) | -6.5 | 0.7 | 1.7 | 0.9 | 0.672 | 2.8% | 4.5
O=C1[C@H]2[C@@H](c3ccc(F)cc3)N3C(=O)N(c4cccc(Br)c4)C(=O)[C@@]3(Cc3ccc(Cl)cc3)[C@H]2C(=O)N1C1CCCCC1 | 13.2 | 0.3 | 0.5 | -6.5 | · | · | 0.0
BrCCOCCOc1ccc2ccccc2c1 | -0.3 | -1.1 | 0.6 | 1.6 | 0.661 | · | 0.5
CC(C)C(=O)NC(c1ccco1)c1c(O)ccc2ccccc12 (stereo not given) | 2.5 | -0.2 | -1.9 | 6.9 | 0.666 | 18.1% | -21.7
NC(=O)COC(=O)c1ccccc1Nc1ccc(SC(F)F)cc1 | 1.9 | -5.1 | -0.2 | -4.0 | 0.673 | -5.1% | -6.1
Cn1c(=O)c2ccccc2n(Cc2cccc(F)c2)c1=O | -0.9 | 0.2 | 2.0 | 2.9 | 0.685 | · | 3.4
O=C(c1ccc(=O)oc1)N1CCN(C(c2ccccc2)c2ccccc2)CC1 | 3.1 | 0.4 | -0.6 | -0.9 | 0.701 | 3.3% | -21.9
CCOC(=O)CN1C(=O)C(O)(c2c(C)[nH]c3ccccc23)c2ccccc21 (stereo not given) | 3.6 | -1.1 | -3.0 | 6.3 | 0.684 | 7.8% | -0.4
CCOCCOC(=O)C1=C(C)N(C)C(=O)NC1c1ccccc1F (stereo not given) | -5.5 | 0.3 | 2.3 | 1.3 | 0.711 | 6.4% | 1.4
O=C(CCCN=C1NS(=O)(=O)c2ccccc21)OCC(=O)c1ccccc1 | 7.8 | 1.0 | 1.0 | -5.1 | 0.669 | -17.5% | 0.3
Cc1ccccc1C(=O)/C(C#N)=N/Nc1c(C)n(C)n(-c2ccccc2)c1=O | 6.8 | 0.2 | 1.7 | -5.0 | 0.689 | 1.6% | 10.1
CCOC(=O)c1cc(C(C)(C)C)oc1CN | 0.4 | -0.7 | -3.9 | 0.5 | 0.713 | 11.1% | 15.7
COc1ccc(C)c2sc(N(CCCN(C)C)C(=O)CS(=O)(=O)c3ccc(F)cc3)nc12 | 18.5 | -1.0 | 1.1 | 2.4 | 0.624 | -4.7% | 3.6
COc1ccc(C(=O)NC(C(=O)NCc2ccccn2)C(C)C)cc1 (stereo not given) | 2.0 | 1.0 | 1.5 | -0.7 | 0.68 | 9.3% | 2.3
c1ccc(C2C/C(=N\N3CCOCC3)c3ccccc3O2)cc1 (stereo not given) | -0.4 | -0.5 | 0.3 | 5.4 | · | · | ·
COc1ccc(OC)c(N2CC(O)(c3cccs3)[N+]3=C2SCCC3)c1 (stereo not given) | -5.0 | -0.4 | 1.4 | 0.6 | 0.682 | -7.9% | 2.7
Cc1ccc(CNS(=O)(=O)c2ccc(-c3cnc(C4CC4)o3)cc2)cc1 | 0.4 | 1.1 | -1.0 | 1.7 | 0.703 | · | 3.3
O=C(CNC(c1ccccc1)c1ccccc1)Nc1cc([N+](=O)[O-])ccc1Cl | 2.1 | 0.7 | -0.6 | -5.1 | 0.703 | · | 4.7
CCOc1ccc(/C(O)=C2/C(=O)C(=O)N(Cc3cccnc3)C2c2ccc(N(C)C)cc2)c(C)c1 (stereo not given) | 9.1 | -0.5 | -1.1 | -25.3 | 0.626 | 5.8% | 5.8
COc1cc(NS(=O)(=O)c2ccc(Cl)cc2)c(C(=O)O)cc1OC | -0.5 | 0.0 | -1.4 | -1.6 | · | 17.9% | ·
CC(=O)NC(CCS(C)(=O)=O)C(=O)Nc1ccccc1Cl (stereo not given) | 6.3 | -0.6 | 4.5 | 9.2 | 0.768 | -1.1% | 2.3
COc1ccccc1CC(NC(C)=O)C(=O)NC1CCN(C(=O)c2ccc(C)cc2)CC1 (stereo not given) | 6.6 | 0.4 | -2.2 | 3.7 | 0.697 | 7.0% | 3.0
O=C(C[n+]1cccc(/C=N/O)c1)N1CCCc2ccccc21 | 5.8 | 0.7 | -1.6 | 8.1 | · | -1.4% | ·
CCOC(=O)C1CCN(c2c(-c3ccccc3)c3cc(Cl)ccc3[nH]c2=O)CC1 | -13.9 | -0.4 | 3.8 | -2.1 | 0.771 | 24.7% | -29.5
COc1ccc(-n2c(Cc3cccn3C)nnc2SCC(=O)Nc2ccccc2F)cc1 | 0.8 | -0.5 | -1.9 | 0.3 | 0.728 | -1.8% | 6.4
CCOc1cc(S(=O)(=O)N(Cc2ccccc2)Cc2ccccc2)c(OCC)cc1-n1cnnn1 | 4.3 | · | -0.5 | · | 0.735 | -9.6%&-4.1% | -8.4
Cc1ccc(S(=O)(=O)NC(=O)c2cc(C)n(C3CC3)c2C)cc1 | 12.9 | 0.6 | -0.5 | -7.2 | 0.685 | 6.5% | 3.0
O=S(=O)(c1ccc2c(c1)OCCO2)N1CCN(S(=O)(=O)c2ccco2)CC1 | 6.0 | -0.7 | 2.6 | 4.2 | 0.7 | · | -2.0
COc1cc2oc3ccc(C#Cc4ccccn4)cc3c(=O)c2cc1OC | 70.6* | 1.3 | 34.3 | -4.0 | 0.68 | · | -50.2
Cc1csc(NC(=O)CSC2=NS(=O)(=O)c3cc(F)ccc3N2)n1 | -2.1 | 0.9 | 4.1 | -2.8 | 0.644 | -2.7% | 3.3
Cc1ccc2nc(/C(C#N)=C\c3cc(C)n(-c4cccc([N+](=O)[O-])c4)c3C)[nH]c2c1 | 10.6 | 0.6 | 1.2 | 0.1 | 0.699 | -3.3% | 3.9
CCOC(=O)N1CCN(C(=O)c2ccc(OC)cc2)CC1 | -3.8 | -1.3 | 0.9 | -0.8 | 0.662 | -9.1% | 0.0
Cc1cc(C)c(S(=O)(=O)Nc2cccc(C(=O)O)c2)cc1S(=O)(=O)Nc1cccc(C(=O)O)c1 | -2.1 | 0.5 | -1.6 | -5.6 | 0.738 | · | 6.2
O=C(CCN1CCN(C/C=C/c2ccccc2)CC1)Nc1ccccc1 | 3.9 | -0.3 | 3.5 | 2.8 | 0.696 | -9.5% | 3.5
O=C(CCS(=O)(=O)c1cccs1)N1CCCC1 | -2.1 | 0.6 | 1.4 | 3.2 | 0.736 | -9.9% | -1.0
CN1CCCN(C(=O)c2cc(=O)[nH]c3ccccc23)c2nc3ccccc3nc21 | -1.4 | 1.1 | 0.9 | 1.8 | 0.728 | -0.7% | 1.6
Cc1ccc(S(=O)(=O)Nc2cc(C(=O)Nc3cc(C)cc(C)c3)ccc2Cl)cc1 | 5.1 | -0.9 | -2.2 | 1.9 | 0.715 | -2.4% | ·
CC(C)CCNC(=O)c1cc(S(=O)(=O)N2CCc3ccccc32)cn1C | 6.8 | · | -0.6 | 1.9 | 0.675 | · | 6.3
C/C(=N\NC(=O)c1cc(C)nc2ccc(C)cc12)c1ccncc1 | -6.1 | -0.3 | 4.5 | -4.4 | · | · | ·
Clc1ccc(/C=N/NC(=Nc2ccccc2)c2ccccn2)c(Cl)c1 | 21.3 | 0.7 | 2.2 | -2.5 | · | 0.0% | ·
COc1ccc(NC(=S)N(CCCN2CCOCC2)Cc2cn(C)c3ccccc23)cc1 | 6.1 | 1.0 | 0.4 | 2.6 | 0.657 | -10.4% | 3.2
CCOc1ccc(NC(=O)c2ccc3c(c2)N(Cc2ccc(F)cc2)C(=O)CS3=O)cc1 (stereo not given) | -0.9 | 0.2 | -1.9 | -2.4 | 0.716 | -3.8% | 2.5

Printed as active in B2AR ag, among the entries above:
compound	B2AR ag	Bfl-1 A1 inh	HNF4A DNA FP	LANA-H2B inh	Vif TR-FRET	UCH37 inh
COc1cc2oc3ccc(C#Cc4ccccn4)cc3c(=O)c2cc1OC	70.6*	1.3	34.3	-4.0	·	-50.2

Screening data deposited in PubChem by several laboratories.
